Screening data (PubChem BioAssay)
MgcRacGAP = inhibition of MgcRacGAP-stimulated Rac1 GTP hydrolysis – biochemical, inorganic phosphate detection, orthogonal assay, confirmation (AID 652142); inhibition, %; MgcRacGAP/Rac1F28L GTP hydrolysis, Biomol green phosphate; hits give high values; test concentration not given here; none was called active though about 1 in 100 pass the limit; 2,400 tested, under 10 active;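 active = inhibition over three standard deviations or about 65%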;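 also: full inhibition control lacks the GAP enzyme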
Numbers without * were called inactive. An excerpt (hit frequency here may not be typical).

SMILES	MgcRacGAP
C=C1c2cccc(O)c2C(=O)C2C(=O)[C@]3(O)C(=O)C(C(N)=O)C(=O)[C@@H](N(C)C)[C@@H]3[C@@H](O)[C@H]12 (stereo not given in full)	25
